Env fusion inh: blocks HIV Env-driven cell-cell fusion; HeLa-JRFL Env/CEM21 cell fusion, luciferase; inhibition, % at 12.3 µM; actives 1.1% (n = 360,000); AID 651610;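 active = mean replicate inhibition score of at least 50 and every replicate individually at or above 50; inconclusive = only one of the two criteria met; inactive = mean below 50 and not all replicates reaching 50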;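 note: 0% = plate neutral controls and 100% = maraviroc near 300 nM; one replicate is shown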
CSC inhib: cancer stem cell inhibition; cancer stem cell-like cells viability, luminescence; inhibition, % at 7.5 µM; actives 1.1% (n = 300,000); AID 2717;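 active = mean at 75% or more and at least half the replicates too; inconclusive = mean and replicates disagree; tested in HMLE shEcad cells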;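 note: 0% = median of negative and 100% = median of positive control wells; the first replicate is given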
MT1-MMP act inh: MT1-MMP (human) activation inhibition; actives 0.061% (n = 360,000); HT1080 RFP-PRO-GFP cells, GFP/RFP ratio fluorescence, overnight; percent of plate control window, DMSO zero; AID 651647; GFP/RFP ratio change, % at 20 µM; P50281;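 active = GFP/RFP ratio change of at least 30% with cell ATP level not reduced by more than half and red fluorescence within 50% of control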; note: strong numbers were not always called active
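Test system: HT1080 RFP-PRO-GFP cells; Benchmarks: DMSO and RFP-L50D-GFP cell wells; Timing: cells overnight before dosing, compound overnight, 37 °C, 5% CO2; Compound: one 20 µM compound dose with 1% DMSO; Read-out: GFP/RFP fluorescence ratio.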
Rce1 inh: yeast Ras-converting enzyme inhibition. actives 0.27% (n = 290,000). yeast membranes, quenched prenylated peptide cleavage fluorescence. calls only;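 active = fall in fluorescence gain of 50% or more versus controls, with final raw signal at or below 3038400; inconclusive = same 50% fall but final raw signal above 3038400; inactive = fall in fluorescence gain under 50%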;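 note: plate controls were neutral control wells for no effect and wells lacking membranes for full effect; tested at 10 µM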
Target sequence (Q03530 whole entry, looked up): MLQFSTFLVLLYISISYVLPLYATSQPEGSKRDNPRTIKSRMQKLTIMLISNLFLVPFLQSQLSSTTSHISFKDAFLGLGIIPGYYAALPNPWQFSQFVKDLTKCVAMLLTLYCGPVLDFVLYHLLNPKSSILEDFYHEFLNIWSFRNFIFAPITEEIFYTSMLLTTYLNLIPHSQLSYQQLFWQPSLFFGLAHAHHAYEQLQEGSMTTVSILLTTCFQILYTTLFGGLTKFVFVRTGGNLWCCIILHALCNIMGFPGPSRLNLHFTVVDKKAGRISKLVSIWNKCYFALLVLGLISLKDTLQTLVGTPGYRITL
PABP FP inh: blocks human PABP binding to poly(A) RNA; AID 2014; inhibition, % at 35 µM; fluorescence polarization; P11940; actives 1% (n = 290,000);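 active = 50% or more with normal probe brightness, or confirmed in later tests; inconclusive = above 50% with abnormal brightness, or retests that disagree; inactive = below 50% or failed in later tests; about a fifth of its hits are not listed in these tables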;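 note: calls also rest on retests at 20 µM and on dose response follow-up; controls were probe without protein and protein plus probe with vehicle; some compounds called inactive have numbers as strong as hits; many hits fall short of the cut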
Target sequence (P11940 whole entry, looked up): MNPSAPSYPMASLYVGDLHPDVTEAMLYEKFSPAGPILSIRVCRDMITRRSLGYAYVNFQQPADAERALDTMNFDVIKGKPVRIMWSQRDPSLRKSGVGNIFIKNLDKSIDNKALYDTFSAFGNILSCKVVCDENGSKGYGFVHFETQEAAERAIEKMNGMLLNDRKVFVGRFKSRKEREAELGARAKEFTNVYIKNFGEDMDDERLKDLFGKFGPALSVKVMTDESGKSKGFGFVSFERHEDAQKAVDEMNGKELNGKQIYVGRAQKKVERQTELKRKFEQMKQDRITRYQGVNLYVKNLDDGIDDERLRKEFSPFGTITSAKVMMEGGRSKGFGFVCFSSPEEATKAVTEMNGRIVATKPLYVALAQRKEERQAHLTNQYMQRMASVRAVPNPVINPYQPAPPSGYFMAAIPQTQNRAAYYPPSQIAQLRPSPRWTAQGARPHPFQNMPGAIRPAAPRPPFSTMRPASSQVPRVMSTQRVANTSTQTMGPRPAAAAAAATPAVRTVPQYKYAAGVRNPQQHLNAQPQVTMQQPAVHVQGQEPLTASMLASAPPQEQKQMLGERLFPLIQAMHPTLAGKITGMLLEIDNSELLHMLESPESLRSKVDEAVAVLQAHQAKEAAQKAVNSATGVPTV
Yeast UUG start: yeast start codon fidelity modulation. S. cerevisiae UUG-firefly luciferase reporter, luminescence/redox ratio. actives 0.13% (n = 350,000). AID 602363. activity score, % at 18.7 µM;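 active = replicate mean at a twofold rise or more, about +100% in these data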;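 note: firefly luciferase made from a UUG start codon reports start codon fidelity; reporter light over untreated wells divided by growth signal over untreated wells; some hits fall short of that in this replicate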
eIF4H inh: inhibitors of RNA binding by human eIF4H; Q15056; actives 0.94% (n = 290,000); eIF4H fluorescence polarization binding assay; inhibition, % at 35 µM;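 active = 50% or more with normal probe brightness, or confirmed in later tests; inconclusive = above 50% with abnormal brightness, or retests that disagree; inactive = below 50% or failed in later tests; about a fifth of its hits are not listed in these tables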;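 note: calls also rest on retests at 20 µM and on dose response follow-up; 0% = protein and probe with vehicle and 100% = probe without protein; strong numbers were not always called active; many hits fall short of the cut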
eIF4H inh retest: second read-out of eIF4H inh, no call of its own (marks repeat the call); inhibition, %; compound at 20 µM; confirmation average;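 mean of two retest wells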
PABP FP inh retest: second read-out of PABP FP inh, no call of its own (marks repeat the call); inhibition, %; compound at 20 µM; confirmation repeats;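 mean of two retest wells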
MT1-MMP act inh RFP: recorded beside MT1-MMP act inh, whose call it bears; RFP signal change, %; measured here: RFP expression control read;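 0 = vehicle wells; hits needed this value within 50% of zero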
* = called active by the depositor; i = inactive; ? = inconclusive; · = no result given; & = joins results of further samples; [ ] = dose if it differs, or a comment. A portion of the library; count on the stated rates, not on these rows.

SMILES	Env fusion inh	CSC inhib	MT1-MMP act inh	MT1-MMP act inh RFP	Rce1 inh	PABP FP inh	Yeast UUG start	eIF4H inh	others
O=C(CN(c1ccccc1)S(=O)(=O)c1ccccc1)NCCSc1ccccn1	19	6	1	3	i	4	·	-1
CCC(=O)N1CC23C=CC(CC2CC12CCCCC2)O3 (centres undefined)	-56	-12	-1	3	i	-5	-20	-3
Cc1ccc(N(CC(=O)NC2CCCC2)C(=O)CNC(=O)c2cccs2)cc1F	-5	-7	-1	0	i	15	-18	-6
FC(F)(F)c1cccc(-c2ccc(/C=N/Nc3nncc(-c4ccccc4)n3)o2)c1	-3	-4	6	-1	i	15	·	5
Nc1nc(-c2ccccc2)nn1C(=O)c1ccco1	2	-7	-1	1	i	4	·	2
COc1ccc(Cl)cc1NC(=O)CCN1CCN(C)CC1	·	-5	2	5	i	14	6	13
Cc1cccc(C(=O)NNC(=O)c2cccc(C)c2)c1	6	-3	-2	0	i	-8	5	-6
Cc1cc(C)cc(NS(=O)(=O)Cc2ccccc2)c1	3	4	-2	-2	i	4	3	-6
COc1ccc(NC(=O)CCCNC(=O)Cn2cnc3sc4c(c3c2=O)CCCC4)cc1OC	3	18	1	0	i	5	5	14
CCN1CCN(Cc2ccc(NC(=O)c3cc(NC(=O)c4cc5cccc(OC)c5o4)cc(OC)c3)cc2C(F)(F)F)CC1	23&-20	·	-21&6	-29&4	i	-16	-8&-17	-20
CCOC(=O)C1CCN(C(=O)COc2ccc3c(c2)OCO3)CC1	-77	-12	2	2	i	7	-10	-5
Cn1c(SCc2nnc(-c3ccccc3Br)o2)nc2sc3c(c2c1=O)CCC3	19	-3	0	-7	i	0	-16	5
CCOC(=O)C1=CNS(=O)(=O)NC1CCc1ccccc1 (centres undefined)	13	·	2	-4	·	·	-1	·
CCC1CCCCN1CCCNC(=O)c1ccc2nc(N3CCCCC3)sc2c1 (centres undefined)	-65	8	-4	-3	i	7	-10	2
CCOc1ccc(S(=O)(=O)NCCC(=O)N2CC(C)OC(C)C2)cc1 (centres undefined)	-43	-3	2	3	i	·	·	·
COc1ccc2nc(C)cc(Nc3ccc(C)cc3)c2c1	23	·	-1	1	i	-1	-12	-10
COc1ccc(C(=O)NC(C)c2ccncc2)cc1S(=O)(=O)N(C)Cc1ccccc1 (centres undefined)	8	·	1	-3	·	·	1	·
COCc1cn(CC[C@@H]2CC[C@@H](NC(=O)Nc3ccc4c(c3)OCO4)[C@@H](CO)O2)nn1	13[16.7 µM]	·	-6	0	·	·	-37	·
COc1ccc(CN=Cc2c(C(=O)O)[nH]c3ccccc23)cc1	6	-1	-1	5	i	-4	·	-8
O=c1cc(-c2ccccc2)[nH]n1-c1ccc([N+](=O)[O-])cc1	·	138*	18	-17	i	-4	-13	-2
O=C1Cc2cc(NS(=O)(=O)c3cc(F)ccc3F)cc3c2N1CCC3	·	1	9	3	i	·	-11	·
CCNC(=S)N1CCC(NC(=O)c2ccco2)CC1	-10	-36	-1	-2	i	-3	-14	-2
Cn1c(-c2ccc(F)cc2)cc2onc(-c3ccccc3Cl)c2c1=O	-161	0	4	-12	·	·	-7	·
Cc1cccc(CCNC(=O)CCNC(=O)Cn2ccc3ccccc3c2=O)c1	20	-9	-6	5	i	2	-16	-2
Cc1cccc(Cn2cccc2/C=C2/C(=N)N3C=CSC3=NC2=O)c1	·	11	1	0	i	4	·	12
N=c1ccn(CC(=O)NC(N)=O)c2ccccc12	·	6	0	2	i	4	-22	8
C=C(C)C(=O)Nc1cccc(C2=NOC3(C2)C[C@@H](C(N)=O)N(C(=O)c2cc([N+](=O)[O-])cc([N+](=O)[O-])c2)C3)c1 (some centres undefined)	-16	0	6	7	i	43	22	89	eIF4H inh retest=24;PABP FP inh retest=11
COc1cccc(N2CC(O)=C(c3ccccc3)C2=N)c1	·	-13	1	4	·	5	·	2
Cc1cccc(NC(=O)COC(=O)COc2ccc3c(c2)CCC3)c1	3	-13	-2	3	·	·	-11	·
CCOC(=O)N1CCN(C(=O)CS(=O)(=O)c2cn(Cc3ccc(F)cc3)c3ccccc23)CC1	-73	-18	4	1	i	17	-13	-6
CSc1nncc(/C(C)=N/O)n1	1	·	4	6	i	-11	-24	-3
O=C(Nc1ccc(S(=O)(=O)Nc2nccs2)cc1)c1ccc(S(=O)(=O)N2CCOCC2)cc1	·	3	0	3	i	-4	-15	15
COC(=O)c1ccc(NC(=O)Cn2nc(C)c3ccccc3c2=O)cc1	4	·	1	1	i	8	-30	10
COC(=O)c1[nH]c2ccc(Cl)cc2c1NC(=O)C1CC1	·	-8	3	4	i	3	-23	-1
CC1=C(C(=O)OCCOC(C)C)C(c2cc3c(cc2Br)OCO3)CC(=O)N1 (centres undefined)	-107	12	-1	-1	·	-8	-6	-4
C=CCn1c(CCc2ccc(OC(C)C)cc2)n[nH]c1=S	-14	-7	4	1	i	-6	·	-6
CCCCNC(=O)Nc1ccc(Br)cn1	·	4	0	0	i	-8	-2	-7
Cc1ccc(C)c(NC(=S)N=Nc2c(O)n(C)c3ccc(S(=O)(=O)N4CCOCC4)cc23)c1	20	31	5	-1	i	-9	·	-14
COCCN1C(=O)N(c2ccccc2)C(=O)C1CC(=O)Nc1cc(OC)cc(OC)c1 (centres undefined)	11	-13	-1	-1	i	24	-3	4
COCCNC(=O)C(c1ccc(F)cc1)N(C(=O)CCC(=O)Nc1ccccn1)C1CCCCC1 (centres undefined)	-2	·	2	6	i	-9	12	-13
COc1ccccc1CNC(=O)CC12CC3CC(CC(Br)(C3)C1)C2	16	10	0	3	i	6	-2	-5
COCc1c(C(=O)N2CCN(c3ccc(C(F)(F)F)cn3)CC2)oc2ccccc12	·	-9	-4	0	i	-6	12	-1
Cc1ccc(NC(=O)Cn2cnc3sc(C(=O)NCc4ccco4)c(C)c3c2=O)cc1Cl	28	-4	0	2	i	-5	-11	-2
O=C(CC1C(=O)OCN1C(=O)OCc1ccccc1)OCC(=O)c1ccccc1 (centres undefined)	·	1	-2	3	i	-2	-27	-12
Cc1ccc2c(CN3CCCCC3CCO)cc(=O)oc2c1 (centres undefined)	-2	-5	0	3	i	4	-17	11
CCC(=O)c1ccc(OCC(=O)OCC(=O)NCC2CCCCC2)cc1	5	-5	1	4	i	·	·	·
Nc1c(C(=O)NCc2ccc3c(c2)OCO3)nnn1CC(=O)Nc1ccc(Br)cc1	4	6	-3	4	i	8	-14	2
COc1ccc(CC(=O)NCC(=O)N=Nc2c(O)[nH]c3ccccc23)cc1	-3	-4	1	3	i	1	-20	0
CC(C)C[C@H]1CNC(=S)N1CC1CCCN1C[C@H](Cc1ccccc1)N1C[C@H](Cc2ccc(O)cc2)N(CC2CCCCC2)C1=S (some centres undefined)	-89	·	-8	-14	·	·	-12	·
O=S(=O)(c1ccccc1)c1nc(-c2ccco2)oc1NCc1ccccc1	?	-7	19	-5	i	-5	-15	-2
Cc1ccc(C(=O)Oc2coc(CSc3nnc(NC(=O)c4cccs4)s3)cc2=O)cc1	·	48	3	5	i	2.5*	·	90*	eIF4H inh retest=104*;PABP FP inh retest=91*
CSc1ncc(CNc2cc([N+](=O)[O-])ccc2C)c(N)n1	-13	10	10	-12	i	·	-14	·
COc1ccccc1/C=N/n1cnnc1	-146	4	2	0	·	4	-13	5
CN(C)c1ccc(CNc2ccc3c(c2)ncn3C)cc1	-1	13	·	·	i	-15	·	-2
COc1ccc(OC)c(Nc2nc(NCc3ccco3)c3ccccc3n2)c1	9	13	7	-13	i	-10	-3	2
Cc1ccc(Cn2nnc3c(=O)[nH]c(C(=O)NCc4ccco4)nc32)cc1	8	6	3	1	i	2	-11	-3
COc1ccc(NS(=O)(=O)c2cccc(C(=O)N3CCCCCCC3)c2)cc1	·	-12	-1	-3	·	·	-7	·
O=S(=O)(c1ccccc1)N(Cc1nc(-c2ccccc2)no1)C1CCCCC1	·	11	-12	-13	i	-5	-11	-6
CCOc1ccc(NC(=O)CSc2nc(N3CCOCC3)nc(N3CCOCC3)n2)cc1	8	-15	-3	5	i	0	-12	12
COc1ccc(S(=O)(=O)N(Cc2cc3cc(C)ccc3[nH]c2=O)CC2CCCO2)cc1 (centres undefined)	-48	-6	-14	-10	i	-7	6	-1

Compounds listed so far that contain a CF3 group (three):
SMILES	Env fusion inh	CSC inhib	MT1-MMP act inh	MT1-MMP act inh RFP	Rce1 inh	PABP FP inh	Yeast UUG start	eIF4H inh	others
FC(F)(F)c1cccc(-c2ccc(/C=N/Nc3nncc(-c4ccccc4)n3)o2)c1	-3	-4	6	-1	i	15	·	5
CCN1CCN(Cc2ccc(NC(=O)c3cc(NC(=O)c4cc5cccc(OC)c5o4)cc(OC)c3)cc2C(F)(F)F)CC1	23&-20	·	-21&6	-29&4	i	-16	-8&-17	-20
COCc1c(C(=O)N2CCN(c3ccc(C(F)(F)F)cn3)CC2)oc2ccccc12	·	-9	-4	0	i	-6	12	-1

Next part.
SMILES	Env fusion inh	CSC inhib	MT1-MMP act inh	MT1-MMP act inh RFP	Rce1 inh	PABP FP inh	Yeast UUG start	eIF4H inh	others
CC1(C)NC(=O)N(CC(=O)OCC(=O)c2ccc(Cl)s2)C1=O	-14	-15	-1	7	·	·	-20	·
O=c1oc2ccccc2c2c1SC(C(F)(F)F)C2 (centres undefined)	-165	-10	-6	-1	i	-5	-11	0
CC(C)(C)N1C(=O)[C@H]2[C@@H](c3ccc(Br)cc3)N3C(=O)N(c4ccccc4)C(=O)[C@@]3(Cc3ccccc3)[C@H]2C1=O	68*	-10	0	-11	i	·	-9	·
CN(CC(=O)NCCc1ccc(F)cc1)Cc1ccc(Br)cc1	18	·	-1	-3	i	0	-8	-9
Cc1ccccc1Oc1cccc(C(=O)/C(C#N)=C/N(C)C)c1	-25	-9	6	5	i	5	-14	2
CCOc1ccc(NC(=S)N2CCN(CCN3C(=O)c4cccc5cccc(c45)C3=O)CC2)cc1	-66	-6	3	-10	i	8	-11	-3
CCOC(=O)[C@H]1[C@H]2COc3cc(OC)ccc3[C@@H]2N2C(=O)CN(Cc3ccco3)C(=O)[C@@]12C	-19	-5	-1	10	·	·	16	·
C[C@H](CO)N1C[C@H](C)[C@@H](CN(C)C(=O)Cc2ccccc2)OCc2cnnn2CCCC1=O	42	·	3	-5	·	·	-27&-1&4	·
Cc1ccc(/C=C2\Oc3cc(OC(=O)N4CCOCC4)ccc3C2=O)cc1	20	·	-10	2	i	2	·	-2
O=C(O)c1ccc(C(=O)O)c(C(=O)c2ccc(NC(=O)c3ccccc3)cc2)c1	-5	-8	-6	1	i	-2	-14	-4
COc1ccc2oc(CS(=O)c3ccccc3)c(C(=O)O)c2c1 (centres undefined)	-39	-2	-4	1	i	-14	-10	6
CC(C)(C)S(=O)(=O)N1C[C@H]2CC/C=C\C/C=C\2[C@@H]1CCO	19	·	-5	-2	·	·	3	·
Cc1ccc(S(=O)(=O)NCCC(=O)N2CCN(C/C=C/c3ccccc3)CC2)cc1	4	·	-2	-4	·	·	-8	·
O=C(O)c1ccc2c(=O)n(-c3ccccc3)c(=S)[nH]c2c1	-5	0	6	8	i	1	-12	-4
c1ccc(CSCc2ccccc2)cc1	·	-7	-2	2	·	·	-20	·
COc1ccc(S(=O)(=O)N2CCOCC2)cc1NC(=O)/C=C/c1ccccc1	7	·	4	-1	·	·	-3	·
Cc1ccc2nsnc2c1S(=O)(=O)N(Cc1ccco1)Cc1cc2ccc(C)c(C)c2[nH]c1=O	-54	·	1	-6	·	2	-21	-13
CC(C)(C)C1=CC(=Nc2ccccc2N)C=C(C(C)(C)C)C1=O	·	-6	-45	1	i	2	·	-9
